TRPV1 PAM: enhances activation of the human vanilloid receptor TRPV1; hit rate 0.02% among 320,000; AID 540277; potentiation, % at 8.33 µM; TRPV1-expressing cells, Fluo-8 calcium influx, capsaicin EC20 potentiation; host cell line not named in the record; control for the full effect not named in the record; active means potentiation above 80%; inconclusive means 30% to 80%; inactive means below 30%; also: 0% is about no effect
Target sequence (Q8NER1 whole entry, looked up): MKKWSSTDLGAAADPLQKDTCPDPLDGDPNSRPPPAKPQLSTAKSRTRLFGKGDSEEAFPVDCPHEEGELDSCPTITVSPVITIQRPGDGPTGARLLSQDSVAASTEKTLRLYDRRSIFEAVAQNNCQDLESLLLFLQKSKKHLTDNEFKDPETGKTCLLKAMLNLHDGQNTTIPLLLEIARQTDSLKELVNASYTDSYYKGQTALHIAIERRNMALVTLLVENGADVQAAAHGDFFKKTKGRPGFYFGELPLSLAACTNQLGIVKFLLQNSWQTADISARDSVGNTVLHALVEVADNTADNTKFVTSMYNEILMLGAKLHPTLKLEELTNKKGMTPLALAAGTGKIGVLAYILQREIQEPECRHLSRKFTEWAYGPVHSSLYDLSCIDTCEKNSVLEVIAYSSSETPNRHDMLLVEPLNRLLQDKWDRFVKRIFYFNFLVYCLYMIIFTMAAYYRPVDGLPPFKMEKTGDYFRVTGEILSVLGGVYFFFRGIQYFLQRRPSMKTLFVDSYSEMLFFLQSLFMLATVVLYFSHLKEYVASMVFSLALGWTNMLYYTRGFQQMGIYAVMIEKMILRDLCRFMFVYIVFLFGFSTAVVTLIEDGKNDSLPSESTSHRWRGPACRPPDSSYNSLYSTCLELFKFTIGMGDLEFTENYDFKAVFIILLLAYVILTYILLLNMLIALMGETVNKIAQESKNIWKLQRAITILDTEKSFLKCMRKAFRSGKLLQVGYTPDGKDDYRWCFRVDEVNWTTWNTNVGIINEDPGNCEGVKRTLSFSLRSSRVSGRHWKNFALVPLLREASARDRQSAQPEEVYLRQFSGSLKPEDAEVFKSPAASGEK
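Fluo-8 calcium influx in TRPV1-expressing cells, kinetic read (ex 480/em 520 nm). Compound added and read 3 min for agonist activity, followed by capsaicin at EC20 final and 2 min further read for enhancement.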
gsp ag: gsp mutant agonism; gsp mutant cells, cAMP HTRF, 30 min; control for the full effect not named in the record; Potency, µM (doses to about 76.9 µM), inactives show at the top dose activation (cAMP increase), actives largely listed as activators; hit rate 0.13% among 340,000; AID 624287; active = well fitted activation curve with a large enough effect; inconclusive = small, poorly fitted or top-dose-only effect, or another doubt; inactive = no such curve, though single readings can be large or run the other way; cell line not stated here;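 also: phosphodiesterase inhibitor Ro 20-1724 added with compounds to block cAMP breakdown; potency is read from the fitted curve at half-maximal effect; nearly all actives have a fitted effect of over 60% in size; about a fifth of the inactives were tested at one dose only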
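Cells in DMEM/10% FBS with G418 were pretreated with compounds in DMSO plus […] (300 uM stock) for 30 min at 37C. cAMP was measured by HTRF (cAMP-d2 plus anti-cAMP antibody-K) after 30 min at room temperature.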
Menin MLL FP FL: inhibitors of human menin-MLL interaction, wild-type MLL peptide; FP activity change, % at 61.4 µM; Fluorescence polarization, fluorescein-MLL peptide displacement from menin; 290,000 tested, under 10 active; inconclusive = falling polarisation curve, or a change in total fluorescence; inactive = total fluorescence flat and polarisation flat or rising; no compound was filed as active; the % refers to the polarisation; negative = inhibition;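 also: % of control where 0% means no effect; inhibitors lower the polarisation; unlabelled MLL peptide was the positive control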
CtBP-E1A inh: blocks the CtBP interaction with E1A; AlphaScreen GST-E1A/His-CtBP binding, 1536-well; hits give low values; control for the full effect not named in the record; activity change, % (test concentration not listed); hit rate 0.49% among 340,000; in the data active means activity change below about -65%; inconclusive means about -30% to -65%; inactive means above about -30%; also: % is scaled to controls: 0 for no effect and ±100 for the full control effect; compound concentration not given in the record
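Homogeneous bead-based format: GST-tagged E1A captured on glutathione donor beads, His-tagged CtBP on nickel acceptor beads; compounds precede bead addition by 2 h at 37 °C.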
ClpP mod: qHTS Assay for Activators of ClpP | purified B. subtilis ClpP, FRET peptide cleavage, 20 min | hit rate 1.9% among 340,000 | Potency, µM (doses to about 57.5 µM), without a hit: at the top dose activity change, negative = active | ATP-dependent Clp protease proteolytic subunit (Bacillus subtilis (strain 168)), P80244 | AID 651965, 2013; active = well fitted falling curve with a large enough effect; inconclusive = small, poorly fitted or top-dose-only effect; inactive = no such curve, though single readings can be large or run the other way; also: potency is read from the fitted curve at half-maximal effect; the source files actives as falling curves though it sought activators and does not explain the sign; nearly all actives have a fitted effect of over 65% in size; many hits overshoot -100%
Target sequence (P80244 whole entry, looked up): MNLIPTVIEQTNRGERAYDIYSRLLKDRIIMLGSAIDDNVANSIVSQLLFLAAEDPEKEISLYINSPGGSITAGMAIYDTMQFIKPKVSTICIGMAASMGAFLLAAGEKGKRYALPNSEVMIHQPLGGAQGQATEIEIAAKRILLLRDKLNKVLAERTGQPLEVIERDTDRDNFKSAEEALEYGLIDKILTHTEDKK
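Purified B. subtilis ClpP, 10 microg/mL final in Tris/HCl pH8 with KCl, BSA, glycerol and Tween-20, cleaved an Abz/nitrotyrosine-quenched decapeptide. Fluorescence (ex 320, em 430) was read at 0 and 20 min at room temperature. Delta was normalized to 5.8 microM ADEP and DMSO/no-enzyme controls.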
gsp antag: antagonists of gsp mutant (McCune-Albright syndrome) | gsp-mutant cells, cAMP HTRF, 30 min; control for the full effect not named in the record | Potency, µM (titrated, usually from 76.9 µM), for the others: at the highest dose activity change, negative = inhibition, actives largely listed as inhibitors | hit rate 0.4% among 340,000; active = falling curve of any shape with a large fitted effect; inconclusive = falling curve, mostly with a smaller effect; inactive = flat or rising curve; cell line not stated here;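 also: intracellular cAMP measured with PDE inhibitor Ro 20-1724 present during compound exposure; potency is read from the fitted curve at half-maximal effect; % is scaled to controls: 0 for no effect and ±100 for the full control effect; nearly all actives have a fitted effect of over 65% in size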
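HTRF cAMP read-out (cAMP-d2 plus anti-cAMP antibody-K in lysis buffer, 30 min RT). Before lysis, cells are exposed to compounds with […] for 30 min at 37C in DPBS containing Ca/Mg, BSA and Tween 20.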
Sfp PPTase inh: Sfp phosphopantetheinyl transferase inhibition; hit rate 3.5% among 310,000; Q9F4F7; Biochemical Sfp PPTase activity, qHTS; Potency, µM, inactives show max response, negative = inhibition, hits mostly inhibitors; active = well fitted inhibition curve with a large enough effect; inconclusive = small, poorly fitted or top-dose-only effect, or another doubt; inactive = no such curve, though single readings can be large or run the other way;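 also: the enzyme is Sfp with the accession as filed and its product quenches rhodamine fluorescence; potency is read from the fitted curve at half-maximal effect; 0% = enzyme reaction without inhibitor and -100% = no enzyme wells; top concentration of the series not given in the record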
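After 15 min at room temperature with compound, 15 nM Sfp received 5 uM rhodamine-CoA plus 12.5 uM BHQ-2-ybbR (50 mM Hepes pH 7.6, 10 mM MgCl2). Rate came from the fluorescence difference over 30 min, ex 525/em 598 nm.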
* hit, by the source's call; [ ] = another dose, or the depositor's remark.

For Cn1c(SCc2nc(-c3ccccc3)no2)nnc1-c1ccco1 the results were TRPV1 PAM 5, gsp ag -21%, Menin MLL FP FL 0.4, CtBP-E1A inh -2, ClpP mod 0.6%, gsp antag -13% and Sfp PPTase inh 4%.
Cc1ccccc1Nc1nc(-c2ccccc2)c(C(=O)Nc2cccnc2)s1 was read as TRPV1 PAM 1, gsp ag 16%, Menin MLL FP FL 3.1, CtBP-E1A inh 6, ClpP mod 3.8%, gsp antag inconclusive and Sfp PPTase inh 18%.
Screening CCn1cc(C(=O)N2CCCC2)c(=O)c2cc(S(=O)(=O)N3CCC(C)CC3)ccc21 returned TRPV1 PAM 8, gsp ag inconclusive, Menin MLL FP FL 0.4, CtBP-E1A inh 8, ClpP mod -0.1%, gsp antag 10% and Sfp PPTase inh 11%.
`Cc1nn(C)cc1C(=O)NNC(=S)Nc1ccc(Cl)cc1` gave TRPV1 PAM 4, gsp ag 1%, Menin MLL FP FL 1.5, CtBP-E1A inh 7, ClpP mod -0.7%, gsp antag 8% and Sfp PPTase inh 9%.
For COc1ccc(NC(=O)Cn2c(C)csc2=O)c(OC)c1 the results were TRPV1 PAM inconclusive, gsp ag -14%, CtBP-E1A inh -14, ClpP mod -2.6% and gsp antag 11%.
Cc1ccc([N+](=O)[O-])c(OCCN2CCNCC2)c1 was read as TRPV1 PAM -1, gsp ag inconclusive, Menin MLL FP FL -2.6, CtBP-E1A inh 10, ClpP mod -1.7%, gsp antag 6% and Sfp PPTase inh inconclusive.
For Cc1cc(C)c2nc(NC(=O)C3CCCO3)sc2c1 (stereo not drawn) the results were TRPV1 PAM 0, gsp ag 12%, Menin MLL FP FL 2.7, CtBP-E1A inh 3, ClpP mod 0.2%, gsp antag 1% and Sfp PPTase inh 7%.
CCn1c2ccc(C)cc2c2nc3cc(C(=O)O)ccc3nc21 was read as TRPV1 PAM 2, gsp ag 1%, Menin MLL FP FL -8.9, CtBP-E1A inh -66*, ClpP mod inconclusive, gsp antag 3% and Sfp PPTase inh -4%.
COc1c2ccoc2nc2c(OC)cccc12 was read as TRPV1 PAM 7, gsp ag 8%, Menin MLL FP FL -1.9, CtBP-E1A inh -3, ClpP mod 16µM*, gsp antag 1% and Sfp PPTase inh 7%.
Screening CCOC(=O)C1=NNC(C(=O)c2ccccc2)C1c1ccc(C)cc1 (stereo not drawn) returned gsp ag 23%, Menin MLL FP FL 5.8, ClpP mod 0.4%, gsp antag -18% and Sfp PPTase inh 10%.

The final 2 records of the part before are carried over, then new ones follow.
COc1c2ccoc2nc2c(OC)cccc12 was read as TRPV1 PAM 7, gsp ag 8%, Menin MLL FP FL -1.9, CtBP-E1A inh -3, ClpP mod 16µM*, gsp antag 1% and Sfp PPTase inh 7%.
Screening CCOC(=O)C1=NNC(C(=O)c2ccccc2)C1c1ccc(C)cc1 (stereo not drawn) returned gsp ag 23%, Menin MLL FP FL 5.8, ClpP mod 0.4%, gsp antag -18% and Sfp PPTase inh 10%.
Screening CC1(c2ccc(OC(F)F)cc2)NC(=O)N(CC(=O)Nc2ccc(Cl)cc2F)C1=O (stereo not drawn) returned TRPV1 PAM -1, gsp ag 11%, Menin MLL FP FL -1.8, CtBP-E1A inh -3, gsp antag 4% and Sfp PPTase inh 20%.
For CSc1ncc(Cl)c(C(=O)Nc2sc3c(c2C(=O)NCc2ccco2)CCCC3)n1 the results were TRPV1 PAM -10, Menin MLL FP FL inconclusive and Sfp PPTase inh -13%.
`CC(C)CN1C(=O)c2ccc(C(=O)Nc3ccccc3C(=O)O)cc2C1=O` gave TRPV1 PAM -28, gsp ag -14%, Menin MLL FP FL -22, CtBP-E1A inh -3, gsp antag inconclusive and Sfp PPTase inh 13%.
Screening COc1ccc(COCC(O)CN2CCN(S(=O)(=O)c3ccc(C(C)C)cc3)CC2)cc1 (stereo not drawn) returned TRPV1 PAM 1, gsp ag -16%, CtBP-E1A inh -1, ClpP mod 1.4% and gsp antag inconclusive.
`O=C(NCCO)C1COc2ccccc2O1` (stereo not drawn) gave TRPV1 PAM 4, gsp ag -1%[15.4 µM], Menin MLL FP FL 0.6, CtBP-E1A inh -10, ClpP mod 0.1%, gsp antag -5% and Sfp PPTase inh 17%.
Screening O=C(CCCc1ccccc1)Nc1ccnn1C1CCN(Cc2ccccc2F)CC1 returned TRPV1 PAM -6, gsp ag -8%[15.4 µM], CtBP-E1A inh 9, ClpP mod 0.1%, gsp antag 11% and Sfp PPTase inh 4%.
For Cc1ccc(-n2ncc3c2CCCC3NC(=O)CCCN2CCCC2=O)cc1C (stereo not drawn) the results were TRPV1 PAM 4, gsp ag -4%, Menin MLL FP FL 7.0, CtBP-E1A inh -2, ClpP mod 5.5%, gsp antag 5% and Sfp PPTase inh 0%.
Screening CCCCc1c(C)nc(Nc2ccc(OC)cc2)[nH]c1=O returned TRPV1 PAM -1, gsp ag 25%, Menin MLL FP FL 1.4, CtBP-E1A inh 1, ClpP mod -6.1%, gsp antag 6% and Sfp PPTase inh -11%.
`COc1ccc(-c2nc(N3CCC(C)CC3)[nH]c(=O)c2C#N)cc1` gave TRPV1 PAM 5, gsp ag -15%, Menin MLL FP FL 2.6, CtBP-E1A inh 13, ClpP mod -6.7%, gsp antag 18% and Sfp PPTase inh -1%.
`COCCNC(=O)C(C)Oc1ccccc1` (stereo not drawn) gave TRPV1 PAM 12, gsp ag -22%, Menin MLL FP FL -0.6, ClpP mod -2.5%, gsp antag 79%[activator] and Sfp PPTase inh 3%.
CCOC(=O)c1cnc(-n2nc(C)cc2C)nc1Oc1ccc(C(=O)OC)cc1 was read as TRPV1 PAM 16, gsp ag -1%[15.4 µM], Menin MLL FP FL 0.4, CtBP-E1A inh -8, gsp antag 1% and Sfp PPTase inh -3%.
CN1CCC[C@@H]1CCNC(=O)c1c(-c2ccc3c(c2)OCO3)noc1-c1ccsc1 was read as gsp ag 3%, CtBP-E1A inh -25, ClpP mod -11% and gsp antag -4%.
Screening Cc1c(Br)c(=O)oc2c(Br)c(O)c(O)cc12 returned TRPV1 PAM 13, gsp ag -8%, Menin MLL FP FL 24, CtBP-E1A inh -3, ClpP mod -9.3%, gsp antag 6% and Sfp PPTase inh inconclusive.
N#Cc1ccccc1NCc1ccccc1 was read as TRPV1 PAM -9, gsp ag -18%, Menin MLL FP FL 5.5, CtBP-E1A inh 32, ClpP mod inconclusive, gsp antag 0% and Sfp PPTase inh 3%.
Cc1ccc(NC(=O)COC(=O)c2nn(C)cc2Cl)cc1 was read as TRPV1 PAM 1, gsp ag 18%, CtBP-E1A inh -4, gsp antag 6% and Sfp PPTase inh 17%.
CCCCCC(=O)N1C[C@@H](n2cc(COC(=O)c3ccccc3)nn2)[C@H](O)C[C@@H]1c1ccccc1 was read as gsp ag -77%[inhibitor], CtBP-E1A inh 0 and ClpP mod -3.0%.
`COc1ccc(OC)c(NC(=O)CN2CCC(C(=O)c3ccc(C)cc3)CC2)c1` gave TRPV1 PAM 0, gsp ag 15%, Menin MLL FP FL 0.5, CtBP-E1A inh -16, ClpP mod -0.2%, gsp antag 28µM* and Sfp PPTase inh -17%.
For Cc1ccc(NC(=O)Cn2c(=O)n(CCCCC(=O)NCc3ccco3)c(=O)c3ccccc32)cc1 the results were TRPV1 PAM 3, gsp ag 27%, Menin MLL FP FL -0.4, CtBP-E1A inh -5, ClpP mod -3.6%, gsp antag -3%[15.4 µM] and Sfp PPTase inh 4%.
Screening CN1C(=O)CC(N2CCN(c3ccc(Cl)cc3)CC2)C1=O (stereo not drawn) returned TRPV1 PAM -7, gsp ag 3%, Menin MLL FP FL 0.8, CtBP-E1A inh 4, ClpP mod -0.8%, gsp antag 12% and Sfp PPTase inh 12%.
Screening CCCN1CCN(C(=O)c2cccc3c2C(=O)N(CCOC)C3)CC1 returned TRPV1 PAM -7, gsp ag -33%[inhibitor], Menin MLL FP FL 0.8, CtBP-E1A inh 2, ClpP mod 0.1%, gsp antag 9% and Sfp PPTase inh 4%.

Structural class: the compounds so far containing an NH in an aromatic ring.
Screening CCCCc1c(C)nc(Nc2ccc(OC)cc2)[nH]c1=O returned TRPV1 PAM -1, gsp ag 25%, Menin MLL FP FL 1.4, CtBP-E1A inh 1, ClpP mod -6.1%, gsp antag 6% and Sfp PPTase inh -11%.
`COc1ccc(-c2nc(N3CCC(C)CC3)[nH]c(=O)c2C#N)cc1` gave TRPV1 PAM 5, gsp ag -15%, Menin MLL FP FL 2.6, CtBP-E1A inh 13, ClpP mod -6.7%, gsp antag 18% and Sfp PPTase inh -1%.

Further entries follow.
`CCCCN(C(=O)c1cc(-c2ccncc2)nc2ccccc12)c1c(N)n(CC(C)C)c(=O)[nH]c1=O` gave gsp ag 11%, ClpP mod -12% and gsp antag 0%.
For COc1cc(CCCN2C(=S)NC[C@H]2Cc2ccc(O)cc2)cc(OC)c1OC the results were TRPV1 PAM 2, Menin MLL FP FL -1.7, CtBP-E1A inh 0, ClpP mod 0.8%, gsp antag -4% and Sfp PPTase inh 8%.
`O=C(N/N=C/c1ccc2c(c1)OCO2)c1sc2cc(Cl)ccc2c1Cl` gave TRPV1 PAM 5, gsp ag -5%, Menin MLL FP FL 1.1, CtBP-E1A inh 6, ClpP mod -7.0%, gsp antag 9% and Sfp PPTase inh -11%.
For COc1ccc(CN=C2NC(=O)CC(C(=O)Nc3ccc(F)cc3)S2)cc1 (stereo not drawn) the results were TRPV1 PAM 5, gsp ag -5%[15.4 µM], Menin MLL FP FL 4.7, CtBP-E1A inh 16, ClpP mod 1.3%, gsp antag -1% and Sfp PPTase inh 13%.
`Cc1cc(C(F)(F)F)n2ncc(-c3cccc(Br)c3)c2n1` gave TRPV1 PAM -4, gsp ag 31%, Menin MLL FP FL 1.2, ClpP mod -0.5%, gsp antag 5% and Sfp PPTase inh 2%.
Screening CN(CC(=O)Nc1ccc(F)cc1)C(=O)c1cc2c(s1)CCCCC2 returned TRPV1 PAM -2, gsp ag 0%[15.4 µM], CtBP-E1A inh 1 and gsp antag -2%.
